LASV entry inh = inhibitors of Lassa virus binding or cell entry | Lassa virus pseudotype entry inhibition, cell reporter; control for the full effect not named in the record | Potency, µM (doses to about 37.9 µM), inactives show at the highest dose activity change, negative = inhibition, hits mostly inhibitors | 300,000 tested, 1.2% active | AID 540256; active means well fitted inhibition curve with a large enough effect; inconclusive means small, poorly fitted or top-dose-only effect, or effect the other way; inactive means flat fitted curve, though single readings scatter; tested in HEK293 cells; also: % is scaled to controls: 0 for no effect and ±100 for the full control effect; nearly all actives have a fitted effect of over 50% in size; luciferase read-out
StopGo reporter = FMDV 2A StopGo reporter, luciferase signal | human cells with a luciferase reporter of 2A StopGo recoding; control for the full effect not named in the record | 410,000 tested, 1.2% active | Potency, µM (titrated, usually from 57.9 µM), for inactives: at the top dose signal change, negative = less light; active = well fitted falling curve with a large enough effect; inconclusive = small, poorly fitted or top-dose-only effect; inactive = no such curve, though single readings can be large or run the other way; tested in HEK293T cells; also: % is scaled to controls: 0 for no effect and ±100 for the full control effect; nearly all actives have a fitted effect of over 45% in size; luciferase light after 4 h
SARS PLP yeast = SARS-CoV PLP inhibition in yeast; S. cerevisiae expressing SARS-CoV PLpro, growth rescue; control for the full effect not named in the record; Potency, µM (series often up to 32.9 µM), for the others: at the top dose activity, positive = growth rescue; 330,000 tested, 0.19% active; AID 485353; also: 0% is about no effect; nearly all actives have a fitted effect of over 55% in size; growth read by luminescence after 48 h
MARV entry inh = inhibitors of Marburg virus binding or cell entry | 300,000 tested, 1.8% active | Marburg virus pseudotyped entry inhibition, cell reporter; control for the full effect not named in the record; about a third of the inactives were read at about 46 µM | Potency, µM (series often up to 37.8 µM), inactives show top-dose activity change, negative = inhibition, most hits filed as inhibitors; active = well fitted inhibition curve with a large enough effect; inconclusive = small, poorly fitted or top-dose-only effect, or effect the other way; inactive = flat fitted curve, though single readings scatter; tested in HEK293 cells; about a fifth of its hits are not listed in these tables; also: % is scaled to controls: 0 for no effect and ±100 for the full control effect; luciferase read-out
RE007 growth inh = less growth of the S. pombe RE007 Vpr strain. S. pombe RE007 Vpr strain, BacTiter-Glo ATP luminescence, 24 h; control for the full effect not named in the record. Potency, µM (top dose mostly 92.2 µM), without a hit: top-dose activity change, negative = less growth. 360,000 tested, 0.21% active; active = well fitted falling curve with a large enough effect; inconclusive = small, poorly fitted or top-dose-only effect; inactive = no such curve, though single readings can be large or run the other way;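 also: % is scaled to controls: 0 for no effect and ±100 for the full control effect; nearly all actives have a fitted effect of over 50% in size; the assay follows cell death caused by Vpr and the record does not say whether a fall means rescue or toxicity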
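Fission yeast RE007 carrying one integrated HIV-1 vpr copy, seeded at OD 0.01 in PMG+AL medium with 23 nL pinned compound. Grown 24 h at 30 degrees; viability read by BacTiter-Glo luminescence after 5 min.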
Cruzain noTriton = cruzain (T. cruzi) inhibition without detergent | purified cruzain, Z-FR-AMC fluorescence, no detergent | Potency, µM, for inactives: max response, negative = inhibition, most hits filed as inhibitors | 200,000 tested, 2.3% active | AID 1476; active = well fitted curve in the direction sought with a large enough effect; inconclusive = small, poorly fitted or top-dose-only effect, or another doubt; inactive = no such curve, though single readings can be large; an effect the other way counts as inactive or inconclusive;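 also: plate controls were enzyme without inhibitor for no effect and buffer without enzyme for full effect; nearly all actives have a fitted effect of over 40% in size; top concentration of the series not given in the record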
Target sequence (P25779 123-467 limits assumed): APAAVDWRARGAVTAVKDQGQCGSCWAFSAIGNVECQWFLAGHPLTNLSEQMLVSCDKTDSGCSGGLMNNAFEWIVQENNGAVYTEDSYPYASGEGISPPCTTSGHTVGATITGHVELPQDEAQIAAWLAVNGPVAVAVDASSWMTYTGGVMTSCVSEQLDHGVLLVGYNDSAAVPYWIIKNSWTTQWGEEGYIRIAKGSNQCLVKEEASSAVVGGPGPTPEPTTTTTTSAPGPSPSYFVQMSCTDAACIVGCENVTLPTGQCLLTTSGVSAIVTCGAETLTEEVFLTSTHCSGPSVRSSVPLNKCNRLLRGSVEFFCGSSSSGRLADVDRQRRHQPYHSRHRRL
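Purified cruzain at 1.5 nM, pre-incubated 15 min with compound at room temperature in 100 mM sodium acetate pH 5.5, 5 mM DTT, 0.00005% Triton X-100. Reaction started with 2 uM Z-FR-AMC; AMC fluorescence increase over 60 s gives rate.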
Cruzain Triton = cruzain (T. cruzi) inhibition with detergent. P25779. 200,000 tested, 0.43% active. purified cruzain, Z-FR-AMC fluorescence, 0.01% Triton. Potency, µM, for the others: max response, negative = inhibition, usual class: inhibitors. AID 1478; active = well fitted curve in the direction sought with a large enough effect; inconclusive = small, poorly fitted or top-dose-only effect, or another doubt; inactive = no such curve, though single readings can be large; an effect the other way counts as inactive or inconclusive;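 also: plate controls were neutral wells for no effect and buffer without enzyme for full effect; nearly all actives have a fitted effect of over 40% in size; top concentration of the series not given in the record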
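In this qHTS format, compounds are incubated with 1.5 nM cruzain for 15 min at room temperature before 2 uM Z-FR-AMC is added. Release of AMC is followed at 360/450 nm, and progress is taken as the 60 s fluorescence difference.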
NS1 function inh = influenza NS1 inhibition | Potency, µM (highest dose often 46.1 µM), for inactives: top-dose activity, positive = more growth | S. cerevisiae slowed by influenza A NS1, growth recovery by OD600 | 270,000 tested, 0.4% active | AID 2326; also: actives are rising curves; nearly all actives have a fitted effect of over 50% in size
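Recovery from NS1-induced slow growth read by OD600 in budding yeast switched to galactose assay medium (pH 6.0, -URA) at 1:100 dilution. Compound 23 nl per well; the matching strain lacking NS1 serves as control.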
Starred values were filed as active, the others as inactive; ? = inconclusive; · = not tested or not shown; [ ] = remark or other dose. Unless noted, calls follow the shape of the dose curve; as a rule, active means well fitted rising curve with a large enough effect; inconclusive means small, poorly fitted or top-dose-only effect; inactive means no such curve, though single readings can be large or run the other way. Potency is read from the fitted curve at half-maximal effect.

Order of results: LASV entry inh, StopGo reporter, SARS PLP yeast, MARV entry inh, RE007 growth inh, Cruzain noTriton, Cruzain Triton, NS1 function inh
1. Cc1nc2ccccn2c1-c1csc(Nc2ccc(C(=O)O)cc2)n1
  ?, 12.4%, 0.5%, ?, -13.4%, ·, ·, -1.8%
2. CCc1cc(C(=O)NNC(=S)Nc2cc(C)ccc2C)cs1
  21.9%, 17.0%, ?, ?, 25.0%, -9.4%, -1.5%, 0.5%
3. COc1ccc(-n2c(-c3ccc(Br)cc3)nc(=S)c3c2CCCC3)cc1
  27.1%, -25.6%, -9.4%, -1.4%, -18.7%, 6.6%, -6.9%, 2.0%
4. CCOCCCNC(=O)c1ccc(-c2nc(CS(=O)(=O)c3ccccc3)c(C)o2)cc1
  3.8%[46.1 µM], ?, ·, ·, ·, -4.2%, -1.6%, ·
5. Cn1cc(CNCCN2CCCCC2=O)c(-c2cccc(Cl)c2)n1
  0.5%[46.1 µM], 4.1%, -1.1%, -0.4%[46.1 µM], 3.3%, ·, ·, -9.1%
6. CC(CC(C)(C)N1CC1)=NO
  -22.0%, -2.1%, ·, ?, 8.6%, ·, ·, ·
7. Cc1ccc(NC(=O)/C(C#N)=C\c2ccc(Cl)cc2Cl)cc1C
  -6.5%[46.1 µM], -12.4%, ·, 6.2%[46.1 µM], ·, -12.4%, -3.6%, ·
8. COc1ccc(N2CCN(C(=O)C3CCN(S(=O)(=O)c4ccc(F)cc4)CC3)CC2)cc1
  -24.7%[46.1 µM], -21.7%, 1.0%, 3.3%[46.1 µM], 10.5%, ·, ·, -6.7%
9. COc1ccc(NS(=O)(=O)c2ccc(NC(=O)c3ccc(CN4CCOCC4)cc3)cc2)cc1
  ?, -27.9%, 13.3%, ?, 5.8%, ·, ·, 4.5%
10. O=C1NC(=O)C2(CCCC2C(=O)O)N1 (stereo unspecified)
  4.0%, -11.2%, ·, 2.0%, -7.9%, ·, ·, ·
11. CCOC(=O)CSc1nc2c(sc(=S)n2-c2ccccc2OC)c(=O)n1-c1ccccc1OC
  -27.7%, -15.9%, 0.8%, ?, -0.1%, ·, ·, 20.0%
12. O=C(Cn1c(C(F)(F)F)nc2ccccc21)Nc1ccccc1N1CCOCC1
  6.6%, -28.5%, 0.6%, -9.2%, 3.5%, -4.5%, 3.0%, 4.0%
13. CCN(CC)S(=O)(=O)c1ccc(C)c(NC(=O)Cc2ccc(S(=O)(=O)N3CCOCC3)s2)c1
  -27.6%, -25.2%, 3.3%, -20.9%, 7.0%, ·, ·, 9.1%
14. CS(=O)(=O)N(CCc1ccccc1)CC(=O)N1CCc2ccccc2C1
  -2.2%, -16.3%, -0.2%, ?, 15.3%, 12.2%, 4.4%, -8.9%
15. COc1ccc(N=C2SCC(c3ccc(C)cc3)=NN2CCO)cc1
  ?, -12.5%, -3.1%, ?, -7.3%, ·, ·, -9.3%
16. O=C(Cn1c(=O)c2ccccc2n(CC(=O)N2CCCCC2)c1=O)N1CCCCC1
  ·, -20.4%, 0.7%, ·, 10.7%, ·, ·, 1.7%
17. O=S(=O)(NCCSc1ccc(Cl)cc1)c1ccc(F)cc1
  -1.1%, 18.0%, -6.6%, -11.8%, ?, -1.2%, -7.3%, -77.9%
18. CN1C(=S)SC(/[N+]([O-])=C\c2ccccc2)C1(C)C (stereo unspecified)
  -2.5%, -1.3%, -1.7%, 14.3%[46.1 µM], -5.0%, -2.6%, 6.8%, 7.8%
19. Cc1cc(O)c(NC(=O)c2cc([N+](=O)[O-])ccc2Cl)cc1C
  -46.7%[46.1 µM], -29.7%, -2.7%, ?, -12.8%, ·, ·, -5.0%
20. COc1cc(OC)c(NC(=O)COc2ccccc2-c2nnc(-c3ccccc3)o2)cc1Cl
  -1.3%[46.1 µM], 0.0%, ·, ·, ·, 3.9%, -0.4%, ·
21. Cc1cc(C(=O)C(C)Cl)c(C)n1Cc1ccco1 (stereo unspecified)
  ·, -5.6%, -1.1%, -21.7%[46.1 µM], 10.7%, ·, ·, ·
22. COc1ccccc1C(=O)C1CCCN(C(=O)c2ccccc2C(C)=O)C1 (stereo unspecified)
  ·, 0.0%, -5.2%, ·, -3.1%, ·, ·, 3.6%
23. COc1ccc(NC(=O)CN2CCC(C(N)=O)(N3CCCCC3)CC2)c(OC)c1
  2.0%, -8.1%, 0.9%, 3.2%[46.1 µM], -18.3%, ·, ·, 3.6%
24. Cc1ccc(-n2cc(-c3ccccc3)c3c(N4CCOCC4)ncnc32)cc1
  -28.9%, ?, -6.4%, ?, -13.7%, ·, ·, ·
25. CCCCCCCCCCCCS[C@H]1CS(=O)(=O)C[C@@H]1O
  ·, -16.8%, 1.8%, ·, 5.2%, ·, ·, 6.6%
26. O=C(CCN1CCCCC1)N/N=C/c1ccc(Br)cc1
  -5.3%, -12.8%, 12.2%, ?, 2.0%, -6.7%, -4.7%, 6.0%
27. Cc1cccc(/C=C/C(=O)c2cc(Br)ccc(=O)c2O)c1
  ?, ?, 16.4%, ?, ?, ?, -23.6%, -119.0%
28. CC(=O)c1ccc(N2CCN(C(=O)c3cc(-c4ccncc4)nc4ccc(Cl)cc34)CC2)cc1
  7.5%, 1.4%, ?, ?, -3.3%, ·, ·, -13.6%
29. Cc1ccc(Cl)cc1N1CCN(C(=O)CN2C(=O)COc3ccc(S(=O)(=O)N4CCCCCC4)cc32)CC1
  4.1%[46.1 µM], ?, ·, 7.8%[46.1 µM], ·, -21.6%, 2.6%, ·
30. O=C(Cn1cnc2cc([N+](=O)[O-])ccc2c1=O)Nc1ccc(N2CCOCC2)cc1
  -0.7%, -27.2%, -0.9%, 1.0%[46.1 µM], 8.0%, ·, ·, -1.5%
31. CC(C)NC(=O)COC(=O)c1ccccc1CSC1=NCCS1
  5.6%, -23.4%, 1.5%, -20.9%[46.1 µM], -5.6%, ·, ·, -6.6%
32. CC(OC(=O)c1cc2sccc2n1C)C(=O)NCc1cccs1 (stereo unspecified)
  -1.0%, ·, 5.5%, ?, 4.9%, -13.9%, -0.8%, -9.5%
33. COc1ccccc1-c1nc(COc2ccc(Cl)cc2Cl)no1
  0.8%, 75.4%[activator], -2.6%, 1.4%, 1.0%, ·, ·, -4.0%
34. COc1ccc(NC(=O)Cn2c(=O)nc(-c3ccccc3)c3ccccc32)cc1OC
  3.7%[46.1 µM], 7.4%, ·, ·, ·, 13.9%, 1.2%, ·
35. CCOC(=O)c1nn(-c2ccc(Cl)cc2)c2nnc(Cc3ccccc3)c(=O)n12
  -2.5%, ?, 9.6%, 0.7%, -17.2%, -2.6%, -4.4%, 20.1%
36. N=c1c(C(=O)NCCc2ccccc2)cc2c(=O)n3ccccc3nc2n1Cc1ccco1
  ?, -26.1%, -1.8%, ?, -5.3%, ·, ·, -12.0%
37. O=C(NCC1OCCc2ccccc21)c1cc(COc2c(F)cccc2F)on1 (stereo unspecified)
  ?, 20.4%, -0.2%, ?, -17.8%, ·, ·, -1.4%
38. CCN(CC)S(=O)(=O)c1ccc(NC(=O)c2ccc3c(=O)n4c(nc3c2)CCCCC4)cc1
  ?, 28.2µM*, ·, ?, ·, ?, -7.4%, ·
39. Cc1cc(S(=O)(=O)Nc2ccc(C(=O)NCCCN3CCCC3=O)cc2)ccc1F
  17.6%, 5.0%, -3.3%, 6.0%, -4.2%, ·, ·, ·
40. CCOC(=O)C1=C(COC(=O)/C=C/c2ccco2)NC(=O)NC1C (stereo unspecified)
  6.6%, -6.6%, ?, 2.3%[46.1 µM], 3.9%, ·, ·, ·
41. Cc1csc(/C(C#N)=N/O)n1
  19.5%, -5.0%, 17.5%, -4.9%, -8.1%, -1.2%, -1.5%, -11.3%
42. Cc1cc(C)c(C#N)c(SCc2c(F)cccc2[N+](=O)[O-])n1
  -26.1%, -6.4%, 3.9%, 13.1%, 5.1%, -5.5%, -6.5%, -14.2%
43. CC1CCCCC1NC(=S)Nc1ccc(SC(F)F)cc1 (stereo unspecified)
  ?, -9.1%, -27.6%, -16.8%, -13.9%, -5.2%, -3.9%, -140.0%
44. COc1ccc(S(=O)(=O)N2CCCCCC2)cc1Br
  ·, 13.8%, 0.6%, ·, -11.1%, ·, ·, -8.3%
45. N/C(=N\OCC(=O)Nc1ccc(F)c(Cl)c1)c1ccccc1
  -3.5%, -19.1%, -3.6%, 0.7%, 10.9%, ·, ·, ·
46. Cc1cc(=O)[nH]c(N2CCCCC2)n1
  4.4%, -22.1%, ·, -3.2%, 15.3%, ·, ·, ·
47. COc1ccccc1/C(O)=C(\C#N)c1nc2ccccc2[nH]1
  0.5%, -5.5%, 0.7%, 3.4%[46.1 µM], -9.1%, ·, ·, ·
48. CCN(CC)CCCN(Cc1cc2ccc(C)c(C)c2[nH]c1=O)C(=O)NC1CCCCC1
  -2.7%, 8.3%, 8.1%, ?, -14.4%, 1.2%, -2.0%, 5.8%
49. Cc1cc(OCc2cc(C(=O)N(C)C3CCOC3)no2)cc(C)c1Cl (stereo unspecified)
  ?, 26.7%, 8.5%, ?, 36.4%, ·, ·, -31.5%

One compound at a time, from the list above. Values in the order: LASV entry inh	StopGo reporter	SARS PLP yeast	MARV entry inh	RE007 growth inh	Cruzain noTriton	Cruzain Triton	NS1 function inh
CCN(CC)CCCN(Cc1cc2ccc(C)c(C)c2[nH]c1=O)C(=O)NC1CCCCC1 is entered as -2.7%	8.3%	8.1%	?	-14.4%	1.2%	-2.0%	5.8%
COc1ccccc1/C(O)=C(\C#N)c1nc2ccccc2[nH]1 is entered as 0.5%	-5.5%	0.7%	3.4%[46.1 µM]	-9.1%	·	·	·
CC1CCCCC1NC(=S)Nc1ccc(SC(F)F)cc1 (stereo unspecified) is entered as ?	-9.1%	-27.6%	-16.8%	-13.9%	-5.2%	-3.9%	-140.0%
COc1ccc(S(=O)(=O)N2CCCCCC2)cc1Br is entered as ·	13.8%	0.6%	·	-11.1%	·	·	-8.3%
N/C(=N\OCC(=O)Nc1ccc(F)c(Cl)c1)c1ccccc1 is entered as -3.5%	-19.1%	-3.6%	0.7%	10.9%	·	·	·
